Bioassay records deposited in PubChem by Southern Research Institute.
Vero: viability loss in Vero cells – cytotoxicity control for Vif-APOBEC3G degradation inhibitor project, dose response (AID 1117358); Vero viability, CellTiter-Glo ATP luminescence, 72 h; reference of the scale not given here; CC50 in µM for hits, for the others viability, % at the top dose, mostly 40 µM; actives 7% (n = 2,300);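 active = viability down to 80% or less at some dose; inactive = above 80% at all doses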
Active calls of the source: *.

Preview (3 entries):
Compound | Vero
O=c1cc(O)nc(SCc2ccccc2Cl)[nH]1 | 85.0%
Cc1ccc(-n2c(C)cc(C(=O)OCC(=O)N(CC(C)C)C3CCS(=O)(=O)C3)c2C)cc1 (stereo not given) | 103.3%
CSc1nc(N(CCO)CCO)c2sc3nc(-c4ccco4)c4c(c3c2n1)CCC4 | 102.8%

All compounds of this part, repeating the preview:
Compound | Vero
O=c1cc(O)nc(SCc2ccccc2Cl)[nH]1 | 85.0%
Cc1ccc(-n2c(C)cc(C(=O)OCC(=O)N(CC(C)C)C3CCS(=O)(=O)C3)c2C)cc1 (stereo not given) | 103.3%
CSc1nc(N(CCO)CCO)c2sc3nc(-c4ccco4)c4c(c3c2n1)CCC4 | 102.8%
Cc1c(C(=O)N2CCN(c3ccc(F)cc3)CC2)sc2nc(-c3ccccc3)cn12 | 99.0%
CCc1cc(=O)oc2cc(C)c(CN3CCCC3)c(O)c12 | 83.5%
O=C(NCCCO)Nc1ccc2nc(-c3ccco3)c(-c3ccco3)nc2c1 | 99.1%
Cc1noc(C)c1COC(=O)c1cccc(S(=O)(=O)N2CCCCCC2)c1 | >40µM*
[O-][n+]1onc2c1CCc1c-2nc(-c2ccccc2)n1OCc1ccccc1 | 93.3%
CCn1c(Cc2c(C)[nH]c3ccccc23)n[nH]c1=S | 93.3%
O=C(Cc1cc(=O)[nH][nH]1)N/N=C/C=C/c1ccccc1 | 105.1%
COc1cc(C(=O)OCCN2CCCCC2)ccc1O | 100.6%
O=C(CCc1c[nH]c2ccccc12)NC1CC1 | 86.4%
COCCN(Cc1cc2ccccc2[nH]c1=O)C(=O)c1ccccc1OC | 98.8%
C=CCn1c(C)cc(C(=O)COC(=O)C2CC(=O)N(Cc3ccccc3)C2)c1C (stereo not given) | 94.5%
CCOC(=O)C1=C(N)n2c(s/c(=C\c3ccco3)c2=O)=C(C(=O)OCC)C1c1ccco1 (stereo not given) | 89.4%
Cc1ccc(OCCSc2nnc(-c3ccncc3)n2C)cc1 | 93.3%
O=C(O)c1cc(-c2ccccc2)on1 | 90.9%
CCc1ccc(CC)c(S(=O)(=O)Nc2ccc(C(=O)O)c(O)c2)c1 | 90.3%
Cc1ccc(NC(=O)c2cc(-c3ccc(C)o3)nc3ccccc23)nc1 | 95.5%
CCN1C(=O)/C(=C\c2ccco2)C(C(=O)OC)=C1C | 102.6%
O=C(NCc1ccc(F)cc1)C1CCCN(C(=O)Nc2ccccc2)C1 (stereo not given) | 92.8%
COc1ccc(S(=O)(=O)n2nc(OC(=O)c3ccc(C)cc3)cc2N)cc1 | 88.6%
O=C(CSc1nc2ccccc2c(=O)n1NC(=O)Cc1ccccc1)NCc1ccccc1 | 113.9%
Cc1nnc(SCc2cnc(-c3ccccc3)o2)[nH]c1=O | 86.9%
C=CCNC(=O)c1ccncc1 | 88.9%
CCOC(=O)C1C(=O)CC(C)(O)C(C(=O)OCC)C1c1cc(Br)ccc1OC (stereo not given) | 84.3%
CCn1c(SCC(=O)NCc2ccco2)nnc1-c1cccs1 | 99.2%
O=C(CCCc1c[nH]c2ccccc12)N1CCOCC1 | 99.0%
CCOC(=O)c1ccccc1NC(=O)CSc1nccn1C | 93.1%
Cc1cc(C)cc(OCC(=O)NNC(=O)CN2C(=O)c3ccccc3C2=O)c1 | 99.7%
COc1cc(C(=O)NCc2nnc(SCC(=O)Nc3nc4ccc(C)cc4s3)o2)cc(OC)c1OC | >40µM*
COc1ccc(N2C(=O)CC(Sc3nc(C)c4c(n3)CCCC4)C2=O)cc1 (stereo not given) | 111.4%
CCOC(=O)c1c(C)oc2c1c(C=NCc1ccccn1)c(O)c1ccccc12 | 34.4µM*
O=C1c2cnc3nc(SCc4ccccc4)nn3c2CC2c3ccccc3CCN12 (stereo not given) | 96.5%
O=C1CCC/C1=C/Nc1ccc2c(c1)OCO2 | 100.3%
CCCCC(=O)NC(=S)Nc1cc(C(=O)O)ccc1Cl | 93.7%
COc1ccc(-c2cc(-c3ccccc3)c(C#N)c(S(C)=O)n2)cc1 (stereo not given) | 31.4µM*
O=C(O)/C=C/C(=O)Nc1cccnc1 | 95.6%
CCc1nnc(NC(=O)CSc2nnc(Cc3ccccc3)o2)s1 | 91.8%
NCCCSC1=NCCCN1 | 91.4%
COc1ccc2nc(SCC(=O)NN)cc(C)c2c1 | 109.7%
COc1cccc2sc(N(C)c3ccccc3)nc12 | 82.9%
COc1cc(C2Nc3cccc4cccc(c34)N2)cc(OC)c1O | 89.6%
CC(C)(C)c1ccccc1OCCOCCSc1ncccn1 | 91.7%
Cc1ccc(C(=O)Oc2ccc(C(=O)COC(=O)c3cnccn3)cc2)cc1 | 102.9%
O=C(Nc1ccc2c(c1)OCCO2)C1CCC1 | 86.2%
O=C(NCc1ccc(N2CCCC2=O)cc1)NC1CCCCC1 | 97.3%
CCn1ncc(/C=N/NS(=O)(=O)c2ccc(Cl)cc2)c1C | 111.0%
Cc1sc(NC(=O)c2ccccc2)c(C(=O)NCCN(C)C)c1C | 109.7%
O=S(=O)(c1ccc(Cl)s1)N1CCN(Cc2ccccc2)CC1 | 93.6%
Cc1c(NC(=O)/C(C#N)=C/C2CC=CCC2)c(=O)n(-c2ccccc2)n1C (stereo not given) | 113.1%
CC(=O)Cc1nsc(Nc2ccc3c(c2)OCCO3)n1 | 94.5%
COc1cccc(C(=O)Nc2nc3c(s2)CN(C)CC3)c1 | 97.4%
O=C(Nc1nccs1)C1CCCN(S(=O)(=O)c2cccc3cccnc23)C1 (stereo not given) | 92.6%
CCn1c(C(=O)OC)cc2c1ccn2-c1ccc(F)cc1 | 101.9%
Cc1cc(C(=O)Nc2sc3c(c2C#N)CCCCC3)cs1 | 92.2%

Other entries
Compound | Vero
CCCCSc1nc2sc3c(c2c(=O)[nH]1)CCC3 | 97.6%
Cc1ccsc1C=Nc1ccc(O)cc1 | 88.9%
O=C(c1ccc(-n2cnnn2)cc1)N1CCOCC1 | 103.8%
O=C(c1cc2ccccc2oc1=O)N1CCN(c2ccc(N3CCOCC3)nn2)CC1 | 99.5%
CCC(C)[C@@H](C(=O)Nc1ccc2c(c1)OCO2)N1Cc2ccccc2C1=O (stereo not given in full) | 89.6%
Cc1ccc(-c2cc(-c3ccc4c(c3)OCO4)c(C#N)c(N)n2)o1 | 98.2%
COc1ccccc1-c1nnc(SCC(=O)NCc2c(C)c(Cl)cc(C(C)C)c2O)o1 | 107.9%
CCOc1ccc(OCCOc2cccc(C(F)(F)F)c2)cc1 | 97.8%

6 compounds from above, arranged by molar mass, descending.
Compound | Vero
C=CCn1c(C)cc(C(=O)COC(=O)C2CC(=O)N(Cc3ccccc3)C2)c1C (stereo not given) | 94.5%
Cc1cc(C)cc(OCC(=O)NNC(=O)CN2C(=O)c3ccccc3C2=O)c1 | 99.7%
O=C(NCc1ccc(N2CCCC2=O)cc1)NC1CCCCC1 | 97.3%
CCc1cc(=O)oc2cc(C)c(CN3CCCC3)c(O)c12 | 83.5%
COc1ccc2nc(SCC(=O)NN)cc(C)c2c1 | 109.7%
C=CCNC(=O)c1ccncc1 | 88.9%

(further entries)
Compound | Vero
CCOc1cc(C2NC(=O)NC(O)(C(F)(F)F)C2C(=O)c2ccccc2)ccc1OC (stereo not given) | 101.2%
CCCOc1ccc(-c2nnn(CC(=O)OCC)n2)cc1 | 104.0%
COC(=O)c1cc(=O)nc2sc(-c3ccc(F)cc3)nn12 | 95.6%
O=C1C(Cc2ccccc2)SC(=Nc2ccccc2)N1c1ccccc1 (stereo not given) | 96.4%
CCC(C)c1c(O)nc(SCC(=O)N2CCOCC2)[nH]c1=O (stereo not given) | 95.8%
CCOC(=O)C1=C(CNCCc2ccc(Cl)cc2)NC(=O)NC1c1ccc2c(c1)OCO2 (stereo not given) | 109.0%
CN(C)C(=O)c1ccc(COc2ccccc2Br)o1 | >40µM*
CC1CCCN(C(=O)CN2CCN(C(=O)c3ccco3)CC2)C1 (stereo not given) | 101.8%
Cc1cc(C(=O)CSc2nnc(-c3ccccc3)n2Cc2ccc3c(c2)OCO3)c(C)n1C | 87.2%
Cc1cc(NC(=O)CCC(=O)N(CCC(C)C)C(C(=O)NC2CCCC2)c2cccnc2)no1 (stereo not given) | 102.8%
CCC1(CC)C(=O)NC(=O)NC1=NCCc1ccc(O)cc1 | 109.3%
Cc1ccc(S(=O)(=O)N=Nc2c(O)[nH]c3ccccc23)cc1 | 99.4%
CCOc1ccc(Br)cc1/C=N/O | 98.1%
C=CCSC1=N/C(=C\C=C\c2ccco2)C(=O)S1 | 90.6%
O=C1CC(/C=C/c2ccco2)=Nc2ccccc2N1 | 91.2%
COc1cc(CN(C(=O)c2ccco2)c2ccc(C)cc2)ccc1O | 93.3%
Cc1cccc(NC2=Nc3ccccc3N3C2=Nc2c(c(C)nn2-c2ccccc2)C3c2ccc(O)c(O)c2)c1 (stereo not given) | 17.4µM*
CC(=O)c1cccc(NC(=O)NCCS(C)=O)c1 (stereo not given) | 90.4%
Cc1cc(-c2ccccc2)nc(Oc2ccc(C(C)(C)C)cc2)c1S(C)(=O)=O | >40µM*
COc1ccc(N2CCN(CCNC(=O)Nc3ccc(Cl)cc3)CC2)cc1 | 99.8%
CCOC(=O)C1=C(C)OC(N)=C(C#N)C1c1cc(Cl)c(OCC(N)=O)c(OC)c1 (stereo not given) | 92.3%
O=C(NCc1ccccn1)c1coc(=O)c(Br)c1 | 100.2%
CCN(CC)S(=O)(=O)c1ccc(NC(=O)CSc2nnc(-c3cccc(OC)c3)n2C)cc1 | 94.5%
C=CCOc1c(Br)cc(CNn2nnnc2N)cc1OCC | 96.3%
NC(=S)N/N=C/c1ccc(-c2cccc([N+](=O)[O-])c2)o1 | 101.5%
FC(F)(F)c1cc(-c2ccco2)nc(NCc2ccco2)n1 | 91.6%
COc1ccccc1NC(=O)c1cc2ccc(O)cc2o/c1=N\O | >40µM*
COc1cc2c(cc1NC(=O)COC(=O)Cn1cnc3ccccc31)oc1ccccc12 | 88.4%
Cc1c(C)n(CC(O)CN2CCCCCC2)c2ccccc12 (stereo not given) | 88.3%
N#Cc1c(NC(=O)CSc2nnnn2C2CCCCC2)sc2c1CCCC2 | 103.7%
C=CCn1c(COc2ccc(F)cc2)nnc1SCC(=O)NC(=O)NCc1ccco1 | 104.2%
CCOCC(=O)Nc1nc2ccc(OC)cc2s1 | 98.0%

Other compounds:
compound	Vero
CC(=O)c1ccc(Nc2nc(=O)c3cccnc3s2)cc1	101.5%
Cc1cc(Oc2ccc(-c3ccccc3)cc2)n2ncnc2n1	97.8%
Cc1cc(C(=O)CSc2nnnn2C)c(C)n1CCc1ccc(Cl)cc1	109.0%
CN(C)S(=O)(=O)c1ccc(NC(=O)N2CCN(c3cccc(C(F)(F)F)c3)CC2)cc1	>40µM*
CCOC(=O)Cn1nnnc1C(C(C)C)N(Cc1cc2c(C)cc(C)cc2[nH]c1=O)C1CCCC1 (stereo not given)	98.3%
COc1ccc(NC(=O)CCc2nc(-c3ccccc3F)no2)cc1	86.1%
COc1ccc(CCN=C(N)NS(=O)(=O)c2ccc(C)cc2)cc1	96.4%
N#C/C(=C/c1ccc(N2CCCCCC2)o1)c1cccc(F)c1	102.6%
COc1ccc(-c2nc(CS(=O)CC(=O)NC3CCCc4ccccc43)c(C)o2)cc1OC (stereo not given)	103.3%
CC(=O)N1c2c(cc(Br)cc2S(=O)(=O)N2CCOCC2)CC1C (stereo not given)	91.8%
O=C(NC1=NCCS1)C1CC2CCC1C2 (stereo not given)	93.0%
CNc1c(C(=O)O)ccc2c1C(=O)c1ccccc1C2=O	94.7%
CCCCOc1ccccc1C1NC(=O)NC(C)=C1C(=O)OCc1ccco1 (stereo not given)	91.0%
CCOC(=O)CSc1nnc(CNC(=O)c2cc(OC)c(OC)c(OC)c2)n1C	95.1%
Cc1ccc(-c2ccc(CCC(=O)O)n2NC(N)=S)cc1	93.1%
CC1=CCC(/C=N\Nc2nnc3c(n2)[nH]c2ccccc23)CC1 (stereo not given)	99.7%
Cc1cc2nc(C)n(CCCNC(=O)Nc3ccc(F)cc3)c2cc1C	81.2%
Cc1sc2ncnc(OCC(=O)N3CCN(S(=O)(=O)c4ccc(Cl)cc4)CC3)c2c1C	90.0%
Cc1cc(NC(=O)c2ccccc2F)n(-c2nc3ccccc3[nH]2)n1	98.0%
CC(=O)N1CCN(c2ccc(NC(=O)COc3ccc(Cl)cc3Cl)cc2)CC1	92.1%
CCn1c(=N)n(CC(=O)c2ccc(OC)cc2)c2ccccc21	82.4%
O=C(CSc1ncn[nH]1)Nc1c(Br)cc([N+](=O)[O-])cc1Br	92.1%
COCCNc1nc2c(c(=O)n(C)c(=O)n2C)n1Cc1cccc(C)c1	91.0%
CC(C)N1C(=O)CC(Nc2ccc(N3CCOCC3)cc2)C1=O (stereo not given)	96.8%
Cn1ncc2c(Nc3ccc4ccccc4c3)ncnc21	>40µM*
CCCCN1C2CCCC1CC(NC(=O)c1ccc(OC)c(OC)c1)C2 (stereo not given)	97.0%
CCOC(=O)CSc1nnc(CNc2ccc(Cl)cc2)n1-c1ccccc1	93.6%
COc1ccc(N2CCN(c3nc4ccccc4nc3NS(=O)(=O)c3ccccc3)CC2)cc1	87.6%
CCOCC(=O)Nc1ccc(C)c(Cl)c1	100.0%
O=S(=O)(Nc1ccc2c(c1)nc1n2CCN(Cc2ccccc2)C1)c1ccc(Cl)cc1	89.3%
COc1ccc(C(=O)NCc2cccnc2)cc1OC	96.7%
COc1ccc(C2C(C#N)=C(SCC(=O)Nc3ccc(C)cc3)NC3=C2C(=O)CC(C)(C)C3)cc1 (stereo not given)	109.2%
COc1cc(C2C(C#N)=C(N)N(c3cccnc3)C3=C2C(=O)CCC3)ccc1O (stereo not given)	95.1%
CC(=O)OC1COC(n2ccc3ccccc32)C(OC(C)=O)C1OC(C)=O (stereo not given)	94.1%
O=C(c1c(F)cccc1F)N(Cc1ccccn1)C1CCCC1	93.3%
O=C(O)C1=C(C(=O)Nc2ccc(F)c(Cl)c2)CCCC1	96.9%
COc1ccc(C2=CC(c3ccc(Cl)cc3)n3cnnc3N2)cc1OC (stereo not given)	88.4%
c1ccc(CN2CCN(CCCNc3ccc4nnc(-c5ccccc5)n4n3)CC2)cc1	97.2%
Cc1ccc(/C=c2\sc3nc(-c4cccs4)nn3c2=O)o1	109.5%
CN(CCOCCOc1ccc2ccccc2c1)Cc1ccccc1	80.2%
CSCC[C@@H](Nc1nc(-c2ccccc2)nc2c1oc1ccccc12)C(=O)O	>40µM*

Not all compounds are listed (hit frequency here may not be typical).
